CtBP-E1A inh: qHTS Assay for Inhibitors of the CtBP/E1A Interaction; AlphaScreen GST-E1A/His-CtBP binding, 1536-well; stronger effect = lower value; control for the full effect not named in the record; activity change, % (concentration not given with the values); hit rate 0.49% among 340,000; CtBP / adenovirus E1A interaction (AlphaScreen); in the data active means activity change below about -65%; inconclusive means about -30% to -65%; inactive means above about -30%; further: on the % scale 0 is the no-effect control and ±100 the full control effect
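Homogeneous bead-based format: GST-tagged E1A captured on glutathione donor beads, His-tagged CtBP on nickel acceptor beads; compounds precede bead addition by 2 h at 37 °C.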
PINK1 expr mod: A Quantitative High throughput Screen to Identify Chemical Modulators of PINK1 Expression; PINK1 immunofluorescence, high-content cytometry, 24 h; hit rate 0.2% among 410,000; Potency, µM (highest dose often 76.6 µM), without a hit: top-dose activation (PINK1 increase), actives largely listed as activators; AID 624263, 2012; active = well fitted activation curve with a large enough effect; inconclusive = small, poorly fitted or top-dose-only effect; inactive = flat fitted curve, though single readings scatter; cell line not stated here;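 further: potency means the concentration at half of the fitted maximal effect; % of control where 0% means no effect; nearly all actives have a fitted effect of over 65% in size; a mitochondrial uncoupler was the plate control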
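Fluorescence from anti-PINK1 antibody, together with nuclear and cell stains, was scanned on a laser-scanning cytometer. Before staining, stable-line cells were incubated 24 hours with compounds at 5 concentrations; primary antibody 12 h at 10 degrees C.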
D2 potentiator: Beta-Arrestin HTS for Positive Allosteric Modulators of the Human D2 Dopamine Receptor: Potentiators; AID 624464, 2012; hit rate 0.23% among 360,000; DiscoveRx D2 beta-arrestin cells, luminescence, 90 min; 100% = 57 uM dopamine signal; D(2) dopamine receptor (Homo sapiens), P14416; potentiation, % (no concentration beside the values); active = potentiation of 50% or more; inconclusive = 30% to 50%; inactive = 30% or less;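 further: compound concentration not given in the record; tested on top of an EC20 dose of dopamine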
Target sequence (P14416 whole entry, looked up): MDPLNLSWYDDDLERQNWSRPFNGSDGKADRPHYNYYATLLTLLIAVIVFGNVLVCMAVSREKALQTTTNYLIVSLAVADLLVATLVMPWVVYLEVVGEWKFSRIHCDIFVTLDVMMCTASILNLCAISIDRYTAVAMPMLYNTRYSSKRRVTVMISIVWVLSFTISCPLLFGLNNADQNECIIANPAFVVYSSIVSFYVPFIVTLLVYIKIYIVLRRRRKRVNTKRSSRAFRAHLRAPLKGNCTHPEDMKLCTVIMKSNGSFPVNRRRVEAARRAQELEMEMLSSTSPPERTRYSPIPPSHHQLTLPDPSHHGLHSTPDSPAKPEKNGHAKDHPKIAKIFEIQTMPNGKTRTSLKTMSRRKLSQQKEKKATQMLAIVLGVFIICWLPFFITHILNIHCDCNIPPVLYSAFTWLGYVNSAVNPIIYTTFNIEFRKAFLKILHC
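D2 cells co-treated with compound plus 50 nM dopamine (EC20) for 90 min at 37 deg C to detect potentiation. Beta-arrestin recruitment was read as enzyme-fragment luminescence after 1 h at ambient temperature. Full response was set by 57 uM dopamine.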
Sfp inh: qHTS Assay for Inhibitors of Bacillus subtilis Sfp phosphopantetheinyl transferase (PPTase); hit rate 3.5% among 310,000; 4'-phosphopantetheinyl transferase ffp (Bacillus subtilis), Q9F4F7; Potency, µM, for inactives: max response, negative = inhibition, most hits filed as inhibitors; Biochemical Sfp PPTase activity, qHTS; active means well fitted inhibition curve with a large enough effect; inconclusive means small, poorly fitted or top-dose-only effect, or another doubt; inactive means no such curve, though single readings can be large or run the other way;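 further: the enzyme is Sfp with the accession as filed and its product quenches rhodamine fluorescence; potency means the concentration at half of the fitted maximal effect; 0% = enzyme reaction without inhibitor and -100% = no enzyme wells; top concentration of the series not given in the record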
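Reaction rates are the 30-min fluorescence difference (ex 525, em 598 nm) in wells containing 15 nM Sfp, 5 uM rhodamine-CoA and 12.5 uM BHQ-2-YbbR at pH 7.6 with 10 mM MgCl2.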
Six1-Eya2 blk: qHTS Assay for Inhibitors of the Six1/Eya2 Interaction | Homeobox protein SIX1 (Homo sapiens) + Protein phosphatase EYA2 (Homo sapiens), … | AlphaScreen GST-Six1/His-Eya2 binding, biochemical; stronger effect = lower value; control for the full effect not named in the record | activity change, % (concentration not given with the values) | hit rate 0.56% among 360,000 | AID 651725, 2012; in the data active = activity change below about -65%; inconclusive = about -30% to -65%; inactive = above about -30%; further: on the % scale 0 is the no-effect control and ±100 the full control effect
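AlphaScreen with GST-Six1 and His-Eya2 (5X mix: 250 nM and 500 nM), glutathione donor and nickel acceptor beads; buffer 50 mM Tris pH 8.0, 300 mM NaCl, 1 mM TCEP; 1 h at 37 C in the dark.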
D2 agonist: Beta-Arrestin HTS for Positive Allosteric Modulators of the Human D2 Dopamine Receptor: Agonists | D(2) dopamine receptor (Homo sapiens), P14416 | DiscoveRx PathHunter D2 beta-arrestin, luminescence, 90 min; 100% = 57 uM dopamine signal | activation, % (test concentration not listed) | hit rate 0.084% among 360,000 | AID 624465, 2012; in the data active = activation above about 40%; inconclusive = about 15% to 40%; inactive = below about 15%; further: compound concentration not given in the record; the text of the record calls up to 30% inactive
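DiscoveRx PathHunter D2 beta-arrestin cells (2,100/well) attached overnight, then compound-stimulated 90 min at 37 C in HBSS/10 mM HEPES/0.1% Tween-20 buffer; beta-galactosidase complementation read by luminescence after 1 h at ambient temperature. Dopamine 57 uM final (EC100) as control.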
TRPV1 PAM: HTS Assay for Compounds that Act as Potentiators of the Vanilloid Receptor 1 | Transient receptor potential cation channel subfamily V member 1 (Homo sapiens), Q8NER1 | TRPV1-expressing cells, Fluo-8 calcium influx, capsaicin EC20 potentiation; host cell line not named in the record; control for the full effect not named in the record | potentiation, % at 8.33 µM | hit rate 0.02% among 320,000; active means potentiation above 80%; inconclusive means 30% to 80%; inactive means below 30%; further: 0% is about no effect
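TRPV1-expressing cells were cultured overnight at 35.5C and loaded with Fluo-8 calcium dye for 40 to 90 min at room temperature. After a 10 s baseline, compound was added and calcium influx was read kinetically for 3 min (ex 480/em 520 nm).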
* hit, by the source's call; ? = inconclusive; . = no result given; [ ] = remark or other dose.

Order of results: PINK1 expr mod, Six1-Eya2 blk, TRPV1 PAM, D2 potentiator, D2 agonist, CtBP-E1A inh, Sfp inh
> CC12CCC(=O)N1C(C(=O)NNC(=O)COc1ccccc1F)CS2 (stereo not given)
    2.7%, 8.2, -11.1, -21.6, 0.5, 1.0, .
> N/C(=N\OC(=O)c1ccc(Br)o1)c1ccccn1
    1.8%, 9.3, -3.8, ?, 4.6, -2.7, -2.3%
> Cc1ccc(-c2csc(NC(=O)N3CCOCC3)n2)cc1
    0.9%, 4.0, -1.1, -5.0, 3.9, -2.7, 9.5%
> Cn1nnnc1SCC(=O)Nc1ccccc1Cc1ccccc1
    -0.1%, 0.8, 8.3, 0.0, -0.1, 7.3, 14.0%
> CCOC(=O)c1c(NC(=O)C2C3C=CC(C3)C2C(=O)O)sc2c1CC(C)CC2 (stereo not given)
    -0.3%, -5.4, 3.6, -3.1, -5.1, -2.0, 24.9%
> CCc1nnc(NC(=O)Cc2ccc(OC)c(S(=O)(=O)N3CCOCC3)c2)s1
    1.9%, -3.0, ., 14.0, -0.1, 0.6, .
> COc1ccc(-c2cc(-c3ccccc3)nc(SCC(=O)Nc3nccs3)c2C#N)cc1
    ?, 4.3, 3.6, 2.0, 0.2, -0.5, -8.0%
> Cc1ncc(CO)c2cc(C(N)=O)c(=Nc3ccccc3)oc12
    -2.0%, -17.2, 24.2, 4.3, -0.6, -27.9, 8.9%
> Cc1ccc(C)c(Cn2c(CO)nc3ccccc32)c1
    5.1%, 0.5, -12.5, -7.7, -2.6, -3.5, 18.9%
> COCC1CCCCN1C(=O)c1ccc(OC2CCN(Cc3ccccn3)CC2)cc1 (stereo not given)
    0.0%, -5.8, 2.3, -10.2, -1.3, 1.3, 4.1%
> Cc1ccc(C(=O)N2CCCC(CCC(=O)N3CCN(c4ccccn4)CC3)C2)cc1C (stereo not given)
    -1.1%, -1.4, 19.9, -5.2, -2.6, -8.4, -4.7%
> Cc1cc(C)cc(N2CC(C(=O)O)CC2=O)c1 (stereo not given)
    -0.1%, 4.7, -2.7, -25.3, -0.4, 6.1, 5.0%
> CCC(=O)N(C)C[C@H]1Oc2cc(-c3cccnc3)ccc2S(=O)(=O)N([C@H](C)CO)C[C@H]1C
    0.3%, 3.8, ., 0.6, -10.7, 1.2, .
> COC(=O)C(Cc1ccccc1)NC(=O)CSc1nc(N)cc(=O)[nH]1 (stereo not given)
    1.1%, -16.0, 7.4, -9.6, -1.5, -4.3, 4.7%
> CC(=O)Oc1ccc(C(=O)Nc2cc(NC(=O)c3ccc(OC(C)=O)cc3)cc(C(=O)NC(C)(C)C)c2)cc1
    1.0%, ?, 9.2, -4.5, 1.8, -12.2, 6.9%
> O=C1CCCC(=O)N1c1ccc(O)cc1
    -2.7%, -8.3, -1.5, -4.5, -2.3, -19.2, 24.8%
> Cc1cccc(C(=O)NC2CCN(CC(=O)Nc3ccccc3Cl)CC2)c1
    0.2%, -10.4, -5.5, -7.0, 2.2, 0.7, 23.2%
> O=C(COc1ccccc1Cl)N(Cc1ccco1)C1CCS(=O)(=O)C1 (stereo not given)
    2.1%[38.3 µM], 0.0, -4.1, -13.3, 0.1, -1.2, 4.3%
> Cc1ccc(NC(=O)CSc2nnc(NC(=O)C(C)C)s2)c(C)c1
    ?, 0.6, 12.0, -2.9, -1.0, -3.5, 14.4%
> COc1nc(-c2cccc([N+](=O)[O-])c2)nc2ccccc12
    9.8%, 4.3, 18.1, -2.1, -6.6, 5.2, 13.1%

Limited to Six1-Eya2 blk, for some of the entries so far:
SMILES | Six1-Eya2 blk
CCC(=O)N(C)C[C@H]1Oc2cc(-c3cccnc3)ccc2S(=O)(=O)N([C@H](C)CO)C[C@H]1C | 3.8
Cc1ccc(C(=O)N2CCCC(CCC(=O)N3CCN(c4ccccn4)CC3)C2)cc1C (stereo not given) | -1.4

Later entries:
Order of results: PINK1 expr mod, Six1-Eya2 blk, TRPV1 PAM, D2 potentiator, D2 agonist, CtBP-E1A inh, Sfp inh
> O=C(Nc1ccccc1)C1=C(O)CC(c2ccco2)CC1=Nc1ccccc1 (stereo not given)
    8.8%, 1.0, -10.2, 2.3, -0.8, 4.3, ?
> Cc1ccc(S(=O)(=O)N2CCN(C(=O)N(C)C)CC2)cc1C
    0.4%, -21.3, -8.1, -10.1, -2.2, 1.9, 13.0%
> O=C1c2ccccc2C(=O)N1OCCCN1C(=O)c2ccccc2S1(=O)=O
    -4.0%, 1.7, ., 3.5, 0.4, 7.1, .
> O=C(NNC(=O)c1ccccc1F)c1ccc2[nH]c(=O)c(=O)[nH]c2c1
    1.2%, -8.0, -3.1, -0.7, -2.7, -15.5, 18.4%
> C[C@]12C=CC(=O)C=C1CC[C@H]1[C@@H]3C[C@@H](O)[C@](O)(C(=O)CO)[C@@]3(C)C[C@H](O)[C@@]12F
    2.6%, 7.3, -1.3, -9.7, -5.3, 3.8, -1.2%
> Cc1oc2c(CN3CCCCC3)c(O)ccc2c(=O)c1-c1ccc(Cl)cc1
    2.9%, 6.5, -2.5, -4.2, 0.3, 3.4, 9.6%
> CN(c1ncnc(N)c1[N+](=O)[O-])C1CCCCC1
    -1.9%, -1.1, 1.2, -14.1, 0.3, ., 14.8%
> CSc1ncccc1C(=O)OCC(=O)NC(C)(C)C
    0.5%, 3.4, -13.7, -10.2, 6.9, 5.1, 2.7%
> CCOP(=O)(OCC)C(NC(=O)c1ccc(OC)c(OC)c1)c1ccccc1 (stereo not given)
    2.1%, -0.7, 2.8, -1.5, 0.8, 7.3, 10.0%
> CCOC(=O)c1cc(-c2ccc(OC(F)F)cc2)nc2c1c(=O)[nH]c(=O)n2C
    1.2%, -1.7, 0.2, -3.4, -3.2, 2.3, -1.0%
> Cc1ccc2c(COC(=O)c3ccccc3Cl)cc(=O)oc2c1
    10.2%, -0.9, -28.3, -2.0, 14.4, -23.5, 7.3%
> COc1ccc(C(=O)C2CCCN(C(=O)c3cccc(Cl)c3F)C2)cc1OC (stereo not given)
    1.0%, -0.8, ?, 3.1, 0.3, 1.4, 5.0%
> COC(=O)Cn1c(=O)c(C(=O)CCl)c(N)n(Cc2ccccc2)c1=O
    -0.1%, 9.8, 14.3, -6.4, -3.2, 2.7, 7.1%
> COc1ccc(OC)c(N/C=C2/CCCCC2=O)c1
    -1.4%[38.3 µM], -10.8, -10.6, -8.3, -0.4, -14.3, 9.2%
> Cc1nnc(SCCn2c(N(C)Cc3ccccc3)nc3c2c(=O)n(C)c(=O)n3C)s1
    4.5%[38.3 µM], -1.0, ., -1.1, -2.1, 3.0, .
> Cc1ccc(C(=O)Nc2ccncc2)cc1[N+](=O)[O-]
    -0.8%, -1.0, -21.9, -2.3, -2.4, 2.8, -14.1%
> COCCNC(=O)c1cc(S(=O)(=O)N2CCC3(CC2)OCCO3)ccc1F
    0.3%, -2.2, ., 3.8, -1.3, 12.2, .
> CCCN(CC(=O)Nc1ccccc1C)C(=O)C1CCN(C(=O)Nc2ccccc2)CC1
    -0.4%, 0.0, -16.0, -15.9, -0.4, 2.8, .
> O=C(Nc1cccc(NC(=O)c2ccc(Cl)cc2)n1)c1ccc(Cl)cc1
    4.9%, 15.2, -15.6, -11.7, -2.7, -1.0, 3.5%
> Cc1ccc(OCC(=O)Nc2cccc(S(=O)(=O)N3CCCCCC3)c2)cc1C
    -0.4%, -2.8, 1.1, -4.7, -1.0, -15.2, .

Record cards (already shown):
COCCNC(=O)c1cc(S(=O)(=O)N2CCC3(CC2)OCCO3)ccc1F in the list: PINK1 expr mod = 0.3%; Six1-Eya2 blk = -2.2; TRPV1 PAM = .; D2 potentiator = 3.8; D2 agonist = -1.3; CtBP-E1A inh = 12.2; Sfp inh = .
Cc1ccc(S(=O)(=O)N2CCN(C(=O)N(C)C)CC2)cc1C in the list: PINK1 expr mod = 0.4%; Six1-Eya2 blk = -21.3; TRPV1 PAM = -8.1; D2 potentiator = -10.1; D2 agonist = -2.2; CtBP-E1A inh = 1.9; Sfp inh = 13.0%

(list continues)
Order of results: PINK1 expr mod, Six1-Eya2 blk, TRPV1 PAM, D2 potentiator, D2 agonist, CtBP-E1A inh, Sfp inh
> CCOc1ccccc1NC(=O)CCN(c1ccc(C)cc1)S(=O)(=O)c1ccccc1
    -0.1%, -7.2, -11.7, -11.3, -0.4, -2.2, 7.0%
> CCCCc1nc2cc(C(=O)N(C)C(C)c3ccccn3)ccc2o1 (stereo not given)
    0.6%, 23.2, 10.8, -4.4, 2.4, ., 20.1%
> COc1ccc(C2CC(O)(c3ccccc3)Oc3cc(OC)ccc32)cc1 (stereo not given)
    8.3%, -14.2, -5.8, -2.8, -1.1, -14.4, ?
> Cc1ccc(C(=O)NC2CCN(CC(=O)Nc3cccc([N+](=O)[O-])c3)CC2)cc1
    0.9%, -7.4, -8.3, -11.3, 5.5, 2.1, 10.9%
> CN1C(=O)c2ccc(C(=O)NCc3ccccn3)cc2C1=O
    0.4%, 0.3, -6.0, -6.5, 0.0, -0.8, 3.0%
> NC(=O)CN1C(=O)C(=O)N(Cc2ccccc2)C1=O
    2.8%, -0.3, ?, -8.5, -2.5, ., -11.9%
> CC1CCCN(CCC(=O)Nc2ccc3c(c2)CCC3)C1 (stereo not given)
    -1.2%, 5.7, 3.0, -34.4, -4.9, 4.0, -4.4%
> COc1ccc(N(CC(=O)N/N=C(\C)CCc2ccccc2)S(=O)(=O)c2ccc(C)cc2)cc1
    0.6%, 4.6, -11.9, -0.6, -2.4, 3.2, -11.2%
> O=C(Nc1ccccc1C(=O)O)c1cc(S(=O)(=O)N2CCOCC2)cs1
    3.6%, -24.0, -0.6, 11.9, 2.5, -23.9, 7.1%
> Cc1cc(C)nc(Nc2ccc(N3CCOCC3)cc2)n1
    0.4%, -6.6, ., 15.5, -2.8, -1.0, -28.9%
> Cc1c(C(=O)Nc2ccccc2)cn2c(nc3ccccc32)c1C#N
    10.9%, -7.8, 7.4, -6.4, -0.5, -16.3, 0.7%
> CCCNC(=O)C1(C)CCN1C(=O)c1ccccc1CCc1ccccc1 (stereo not given)
    2.5%, -0.2, ., 3.0, -3.3, 1.8, .

Screening data from PubChem BioAssay.
